Screening results deposited in PubChem by several laboratories.
Mtb hypoxia inh = PubChem AID 1159583; M. tuberculosis hypoxia-regulated fluorescent reporter, fluorescence; actives 0.1% (n = 300,000); fluorescence inhibition, % (test concentration not listed);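 active = 35 to 45% if threefold the growth effect, above 45% if 1.5-fold the growth effect; inactive = the rest, general growth blockers included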;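 note: wells of about 50 µL received 100 nL stock; 0% = vehicle wells and 100% = reference inhibitor wells; whole bacteria with a GFP reporter of the hypoxia response; strong numbers were not always called active; many hits fall short of the cut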
Sa RN4220 lethal = growth inhibition of S. aureus RN4220, primary screen, OD600; AID 1259311, 2017; 16 h; actives 0.33% (n = 330,000); inhibition, % (no concentration beside the values);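 active = z-score of -3 or lower and OD600 up to 0.18 on both plates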;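 note: plate controls were untreated cells for no effect and reference antibiotic for full effect; stock transfer was 100 nL into about 80 µL; one replicate is shown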
Sa ugtP lethal = growth inhibition of ugtP-null S. aureus, primary screen, RN4220 ugtP deletion, OD600; 16 h; some inactives read as strong as hits; growth inhibition, % (test concentration not listed); actives 0.54% (n = 330,000); AID 1259309, 2017;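 active = z-score under -3 and OD600 up to 0.15 on both plates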;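 note: plate controls were untreated wells for no effect and antibiotic for full effect; wells of about 80 µL received 100 nL stock; the first replicate is given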
BJeLR viability = MLPCN primary cell-based screen for lethality selective to Ras in HRASV12 cells; BJeLR (HRASV12) viability, CellTiter-Glo ATP luminescence, 48 h; reference of the scale not given here; inhibition, % (no concentration beside the values); actives 0.17% (n = 300,000); AID 1554, 2009;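 active = replicate mean above 50%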;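 note: 50 nL library stock added to about 25 µL; numbers are from one replicate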
PrP UTR inh = inhibition of PrP 5' UTR reporter expression; inhibition, % (concentration not given with the values); actives 0.35% (n = 340,000); cell-based PrP 5' UTR mRNA reporter, plate reader;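 active = every replicate at 50% or more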;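 note: 0 = median of the neutral control wells; tested in H4 reporter cells; numbers are from one replicate; inactives centre near -14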
Autofluor counter = compound fluorescence in toxin protease inhibitor counterscreen; actives 3.1% (n = 360,000); fluorescence intensity (concentration not given with the values); AID 624483; compound autofluorescence counterscreen, microsphere flow cytometry; active compounds read high;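 active = at least 3 SD above the mean of all compounds, about 16000 in these data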;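 note: 100 nL of 1 mM stock went into each well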
Mtb hypoxia inh growth = further read-out of Mtb hypoxia inh, marked with its call; growth inhibition, %; measured here: M. tuberculosis growth (absorbance);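 0% = vehicle and 100% = reference antibiotic; read after six days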
* hit, by the source's call; nt = no result given.

Start of the data: the first 15 entries (preview)
No.	smiles	Mtb hypoxia inh	Mtb hypoxia inh growth	Sa RN4220 lethal	Sa ugtP lethal	BJeLR viability	PrP UTR inh	Autofluor counter
1	O=C1/C(=C/c2cccnc2)SC(=NCc2ccccc2)N1Cc1ccccc1	-1	2	1.3	-10	-11	-8	4779
2	C[C@@H]1OC(Nc2ccc(N=Nc3ccccc3)cc2)[C@H](O)[C@H](O)[C@H]1O (some centres not stated)	13	2	0.6	-4	-2	-46	5776
3	c1csc(-c2nc(N3CCCCC3)no2)c1	8	7	10.0	6	3	-62	3432
4	COn1c2c(c3c4no[n+]([O-])c4ccc31)CCCC2	9	7	6.4	-16	-6	-7	10283
5	O=C(Nc1ccc(F)cc1F)C1CCN(c2ncnc3c2sc2cccc(F)c23)CC1	5	6	1.3	1	14	-18	5254
6	CCCCC1(C)OC(=O)C(=Cc2ccc(SC)cc2)C(=O)O1 (configuration not stated)	-1	4	2.5	13	7	-4	2206
7	COc1ccc(C(=O)O/N=C/c2c(C(F)(F)F)nn(C)c2SCc2ccccc2Cl)cc1	nt	nt	nt	nt	2	-6	22636*
8	CCOC(=O)c1cnn(CCOC(=O)Cc2cccs2)c1NC(=O)Cc1cccs1	0	4	2.6	-3	-23	-2	22856*
9	Cc1ccc(NC(=O)COC(=O)C2(c3ccc(Cl)cc3)CCCC2)cc1	2	-2	-7.9	-14	4	1	2465
10	Cc1cc(C(C)(C)C)ccc1NC(=O)CC(C)(C)CC(=O)O	2	9	7.6	2	0	-33	nt
11	O=C(Nc1ccc2c(c1)CCCN2C(=O)c1ccccc1)c1ccccc1Br	1	-10	11	-1	16	-16	4770
12	COc1ccc(CC(=O)OC(C)C(=O)Nc2ccc(S(N)(=O)=O)cc2)cc1 (configuration not stated)	-21	-13	4.9	5	-6	-18	nt
13	COc1ccc(CN2CC=C(c3ccc(F)cc3)CC2)cc1Br	-9	-4	-5.7	5	0	-5	4053
14	COc1cccc(NC(=O)CN(C)C(=O)c2cc(C3CC3)nn2-c2ccccc2)c1	-5	8	-1.4	-6	nt	-8	4651
15	CCCCCCn1c(-c2cccs2)n[nH]c1=S	12	8	8.3	-5	-11	-26	4213

Results, previewed entries included:
No.	smiles	Mtb hypoxia inh	Mtb hypoxia inh growth	Sa RN4220 lethal	Sa ugtP lethal	BJeLR viability	PrP UTR inh	Autofluor counter
1	O=C1/C(=C/c2cccnc2)SC(=NCc2ccccc2)N1Cc1ccccc1	-1	2	1.3	-10	-11	-8	4779
2	C[C@@H]1OC(Nc2ccc(N=Nc3ccccc3)cc2)[C@H](O)[C@H](O)[C@H]1O (some centres not stated)	13	2	0.6	-4	-2	-46	5776
3	c1csc(-c2nc(N3CCCCC3)no2)c1	8	7	10.0	6	3	-62	3432
4	COn1c2c(c3c4no[n+]([O-])c4ccc31)CCCC2	9	7	6.4	-16	-6	-7	10283
5	O=C(Nc1ccc(F)cc1F)C1CCN(c2ncnc3c2sc2cccc(F)c23)CC1	5	6	1.3	1	14	-18	5254
6	CCCCC1(C)OC(=O)C(=Cc2ccc(SC)cc2)C(=O)O1 (configuration not stated)	-1	4	2.5	13	7	-4	2206
7	COc1ccc(C(=O)O/N=C/c2c(C(F)(F)F)nn(C)c2SCc2ccccc2Cl)cc1	nt	nt	nt	nt	2	-6	22636*
8	CCOC(=O)c1cnn(CCOC(=O)Cc2cccs2)c1NC(=O)Cc1cccs1	0	4	2.6	-3	-23	-2	22856*
9	Cc1ccc(NC(=O)COC(=O)C2(c3ccc(Cl)cc3)CCCC2)cc1	2	-2	-7.9	-14	4	1	2465
10	Cc1cc(C(C)(C)C)ccc1NC(=O)CC(C)(C)CC(=O)O	2	9	7.6	2	0	-33	nt
11	O=C(Nc1ccc2c(c1)CCCN2C(=O)c1ccccc1)c1ccccc1Br	1	-10	11	-1	16	-16	4770
12	COc1ccc(CC(=O)OC(C)C(=O)Nc2ccc(S(N)(=O)=O)cc2)cc1 (configuration not stated)	-21	-13	4.9	5	-6	-18	nt
13	COc1ccc(CN2CC=C(c3ccc(F)cc3)CC2)cc1Br	-9	-4	-5.7	5	0	-5	4053
14	COc1cccc(NC(=O)CN(C)C(=O)c2cc(C3CC3)nn2-c2ccccc2)c1	-5	8	-1.4	-6	nt	-8	4651
15	CCCCCCn1c(-c2cccs2)n[nH]c1=S	12	8	8.3	-5	-11	-26	4213
16	O=C(N/N=C1/SCC(=O)N1Cc1ccco1)c1ccccc1F	nt	nt	nt	nt	-2	-2	4540
17	CCCCN1CN(Cc2ccccc2)CNC1=S	4	5	0.3	5	4	6	8661
18	N#CCC(=O)N/N=C\c1ccccc1OC/C=C/c1ccccc1	nt	nt	nt	nt	13	-34	4387
19	Cc1ccc(-n2ncc3c(N4CCCC(C)C4)ncnc32)c(C)c1 (configuration not stated)	20	19	2.2	5	-1	-58	5424
20	Cc1ccc(NC(=S)Nc2ccc(C(C)C)cc2)cc1S(=O)(=O)N1CCCCCC1	0	9	-9.3	-41	-7	-24	2025
21	Cc1cc(C)n(-c2ccc(Cl)c(C(=O)OCC(=O)N3CCCCC3C)n2)n1 (configuration not stated)	nt	nt	6.1	3	3	-18	2412
22	COc1cccc(N(CC(=O)NC2CCCCC2)C(=O)c2snc(C(N)=O)c2N)c1	-1	-17	3.4	14	-5	-5	6279
23	O=C(O)C1CCN(S(=O)(=O)c2ccc3c(c2)OCCCO3)CC1	10	2	-0.8	5	3	-15	3959
24	O=C(C=Cc1ccco1)Nc1ccccc1N1CCCCC1	13	11	3.3	0	nt	nt	nt
25	CCOP(=S)(OCC)SCC(=O)NC(C)(CC)C(=O)O (configuration not stated)	6	9	2.4	0	-2	-27	3620
26	COc1ccc(-c2cc(C(F)(F)F)c(C#N)c(SCC(=O)Nc3nc(C)co3)n2)cc1	0	0	1.5	-1	13	-20	9977
27	CN(C)C(=S)NC(=O)C12CC3CC(C)(CC(C)(C3)C1)C2	14	7	4.3	4	-8	-12	5681
28	COCCC(=O)N1CCC(Oc2ccc(C(=O)N3C[C@H]4CC[C@H]3C4)cc2)CC1	10	10	2.2	6	-9	-6	5942
29	Nc1c(C(=O)C2CC2)sc2nc3c(cc12)CCC3	11	9	4.2	2	1	-68	4131
30	COc1ccc(OC)c(NC(=O)COc2ccc(Br)cc2)c1	1	-2	2.5	0	-4	-43	3706
31	O=C(CCS(=O)(=O)c1ccc(Cl)cc1)Oc1ccc2c(c1)OCO2	nt	nt	2.9	7	-8	-9	2937
32	C/C=C/COC(=O)C1=C(C)NC(=O)NC1c1ccc2c(c1)OCO2 (configuration not stated)	-8	-10	-1.0	-9	-7	-24	3700
33	Cc1ccc(NC(=O)COc2coc(CN3CCc4ccccc4C3)cc2=O)c(C)c1	7	7	1.7	-6	-2	-30	5141
34	Cc1ccc(C(=O)C=CNc2ccc(C)c(C)c2)cc1	0	13	0.9	3	nt	nt	nt
35	Cc1ccc(CNC(=O)C2CC2C(NP(=O)(c2ccccc2)c2ccccc2)c2ccccc2)o1 (configuration not stated)	5	6	4.7	-4	nt	nt	nt
36	O=C1NC(=O)N(Cc2cccs2)C(=O)/C1=C/c1ccc(N2CCOCC2)cc1	-1	5	-3.4	3	-2	-13	3175

The closing two records of the part above lead into the next:
No.	smiles	Mtb hypoxia inh	Mtb hypoxia inh growth	Sa RN4220 lethal	Sa ugtP lethal	BJeLR viability	PrP UTR inh	Autofluor counter
35	Cc1ccc(CNC(=O)C2CC2C(NP(=O)(c2ccccc2)c2ccccc2)c2ccccc2)o1 (configuration not stated)	5	6	4.7	-4	nt	nt	nt
36	O=C1NC(=O)N(Cc2cccs2)C(=O)/C1=C/c1ccc(N2CCOCC2)cc1	-1	5	-3.4	3	-2	-13	3175
37	CCCOC(=O)c1c(NC(=O)CCCn2nc([N+](=O)[O-])cc2C)sc(C(=O)OC)c1C	1	8	9.4	-6	-21	-26	2479
38	O=C1OCCC1NC1=NCCC1 (configuration not stated)	5	5	3.3	5	4	-21	9620
39	CCOc1ccccc1CNC(=O)C1CCCN(c2nnc(C)c3c(C)n(-c4ccccc4)nc23)C1 (configuration not stated)	7	4	0.8	2	-9	-3	19018*
40	COc1ccccc1N1CCN(C(=O)CN(CCc2ccccc2)S(C)(=O)=O)CC1	15	4	6.6	7	2	-21	13153
41	Cc1ccc2nc(Nc3ccccc3)cc(C)c2c1	-16	1	-0.7	5	-4	-46	4313
42	Cc1nnc2ccc(-c3ccc(NC(=O)c4ccc(Cl)nc4)cc3)nn12	7	3	3.1	3	5	nt	nt
43	CCn1cc(CN2CCc3c([nH]c4ccccc34)C2c2cccc(O)c2)c(C)n1 (configuration not stated)	9	15	5.9	4	1	-24	4551
44	CCOc1ccc(-c2c(C(=O)NN=Cc3ccc(Cl)cc3)nnn2-c2nonc2N)cc1	13	-6	-2.2	8	nt	nt	nt
45	CCN(CC)CC#CCC(O)(c1ccccc1)C1CCCC1 (configuration not stated)	1	-2	3.2	5	7	-7	5321
46	O=C(CC(=O)NN=Cc1ccccc1)NCc1ccccc1	12	11	1.0	-3	nt	nt	nt
47	CSCCC(NC(=O)c1cccc(C)c1)C(=O)O (configuration not stated)	-1	4	3.6	8	-5	-6	4426
48	Oc1ccc(Nc2nc(N3CCCC3)c3ccccc3n2)cc1	-16	0	0.8	-2	9	-19	3210
49	COc1ccc(-c2noc(CN(C)C3CCOCC3)n2)cc1	2	18	4.1	2	7	-33	4544
50	CC(C)OCC(O)CN (configuration not stated)	9	-2	-1.4	0	0	-10	3911
51	CC(=NN=C(c1ccccc1)c1ccccc1)c1cccs1	-6	9	2.1	81	nt	nt	nt
52	Cc1oc2cc3oc(=O)c(CC(=O)NCC(=O)N[C@@H](C(=O)O)c4ccccc4)c(C)c3cc2c1C	nt	nt	-0.9	-3	-3	-7	5814
53	CC1(C)Cc2c(cnn2-c2ccc(F)cc2)C(NC(=O)c2ccc(=O)oc2)C1 (configuration not stated)	12	2	3.6	10	-1	-25	5892
54	Cc1ccc(Cl)c(OCC(=O)Nc2ccccc2N2CCCCC2)c1	15	-1	4.8	15	9	-17	6521
55	O=C(O)C1(P(=O)(c2ccccc2)c2ccccc2)CCCC1	5	-3	2.7	6	17	-19	4707
56	O=S(c1ccccc1O)S(=O)c1ccccc1O (configuration not stated)	0	2	3.7	-3	nt	-21	4128
57	COc1ccccc1NC(=O)c1cc2c(CO)cnc(C)c2oc1=Nc1cc(OC)c(OC)c(OC)c1	4	6	-0.5	-4	-3	13	3770
58	O=C(NCC(c1ccc(F)cc1)N1CCOCC1)c1ccco1 (configuration not stated)	0	0	5.4	6	5	-28	5585
59	Cc1nc2c3cc(F)ccc3n(CCN3CCCCC3)c2s1	-11	-10	-5.2	-6	26	-16	4208
60	CSc1ccc(C(=O)C2CCCN(Cc3cccnc3)C2)cc1 (configuration not stated)	nt	nt	nt	nt	-1	-17	5824
61	C=CCOc1ccc(C(=O)NC2CCCCC2)cc1	nt	nt	3.2	5	0	-73	4703
62	CC(NC(=O)c1ccc([N+](=O)[O-])o1)C12CC3CC(CC(C3)C1)C2 (configuration not stated)	nt	nt	36	32	-6	-34	5230
63	Cc1cc(C)n2nc(SC(C)C(=O)NCc3ccco3)nc2n1 (configuration not stated)	nt	nt	5.7	6	-2	-16	3544
64	COc1ccc(-c2c(C)sc(NC(=O)c3ccnn3C)c2C#N)cc1	19	10	3.0	-2	8	-22	2109
65	Cc1nnc(NC(=O)C(C)Sc2nnc(CCNC(=O)c3ccccc3F)n2C)s1 (configuration not stated)	14	14	3.3	0	1	-13	3610
66	CCOC(=O)Cn1c2ccccc2c2nc(C)sc21	-3	4	0.7	1	-7	-17	4264
67	COc1ccc(F)cc1C(=O)C1CCCN(Cc2ccc3c(c2)OCCO3)C1 (configuration not stated)	8	-1	1.7	3	7	-28	3426
68	CCOc1ccccc1CN1CCN(Cc2csc(C(C)=O)c2)CC1CCO (configuration not stated)	3	8	5.1	7	1	-19	4839
69	COCCn1c(=S)[nH]c2ccc(N(C)C)cc2c1=O	4	7	2.3	0	8	-5	9993
70	O=C1CCc2cc(S(=O)(=O)Nc3ccccc3F)ccc2N1	9	1	2.9	-1	nt	-6	4027
71	Cc1ccccc1OCC(=O)N1CCc2ccccc2C1	17	8	7.7	5	-25	-2	4403
72	COC(=O)c1sc(-c2ccccc2)cc1NC(=O)c1ccc(F)cc1	-2	0	-1.3	-6	2	-5	2126
73	CCOC(=O)c1c(C)c(C(=O)NC2CCCCC2)c(C)n1CC	13	3	2.6	2	1	-30	9960
74	CCOc1ccc(NC(=O)NCCCCc2ccccc2)cc1	7	-1	4.4	1	2	-17	6256
